Vaccinia inh: blocks a specific stage of Vaccinia orthopoxvirus infection | Vaccinia-infected cells, mCherry/Venus stage reporter fluorescence; stronger effect = lower value; some inactives read as strong as hits | activity change (mCherry), % (concentration not given with the values) | hit rate 0.01% among 89,000 | AID 1053133;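 active = mCherry past -33% and 40 or more points under the early reporter, replicates agreeing; inconclusive = past -33% without that gap or agreement; tested in A549 cells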;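 also: scaled between vehicle wells and reference inhibitor wells; 23 nL library stock went into each well; one replicate is shown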
Vaccinia inh Venus: second read-out of Vaccinia inh, no call of its own (marks repeat the call); activity change (Venus), %; measured here: Venus reporter, other viral stage;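 negative = less Venus signal; first of two replicates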
* hit, by the source's call; ? = inconclusive; / = no result given; & = joins results of further samples. A portion of the library, so the mix of outcomes need not match the whole.

| smiles | Vaccinia inh | Vaccinia inh Venus |
| --- | --- | --- |
| C[C@@H]1CN([C@@H](C)CO)C(=O)Cc2cc(NC(=O)c3ccncc3)ccc2O[C@@H]1CN(C)Cc1ccncc1 | 3 | 2 |
| O=C1CN(S(=O)(=O)c2ccccc2)C[C@H]2[C@H](c3ccc(C#CCc4ccccc4)cc3)[C@H](CO)N12 | 13 | -4 |
| COc1ccccc1CNC(=O)C[C@@H]1CC[C@@H](NC(=O)CN(C)C)[C@H](CO)O1 | 13 | 19 |
| COC(=O)C[C@@H]1C[C@@H]2c3cc(NC(=O)C4CCOCC4)ccc3O[C@@H]2[C@H](CO)O1 | 15 | 15 |
| C[C@H](CO)N1C[C@H](C)[C@H](CN(C)Cc2ccncc2)Oc2ccc(NC(=O)NC3CCCCC3)cc2C1=O | 8 | 5 |
| O=C(c1ccc2c(c1)OCO2)N1C[C@H]2[C@@H](c3ccccc31)[C@@H](CO)N2CC1CCCC1 | -6 | -3 |
| C[C@H](CO)N1C[C@H](C)[C@H](CN(C)Cc2ccccc2)Oc2cc(-c3ccncc3)ccc2S1(=O)=O | -29 | -16 |
| O=C(C1CCC1)N1CCCCN2[C@H](CO)[C@@H](c3ccc(C#CC4CCCC4)cc3)[C@@H]2C1 | ? | / |
| COc1ccc(C#Cc2ccc([C@@H]3[C@H](CO)N4CCCCN(C(=O)c5ccncc5)C[C@@H]34)cc2)cc1 | ? | / |
| CC(C)NC(=O)N(C)C[C@@H]1Oc2ccc(NS(C)(=O)=O)cc2CC(=O)N([C@H](C)CO)C[C@@H]1C | 4 | -2 |
| O=C(NC[C@H]1N[C@H](CO)[C@@H]1c1ccc(-c2cncnc2)cc1)c1ccccc1F | 9 | 12 |
| C[C@@H]1CN([C@H](C)CO)C(=O)c2cc(-c3cncnc3)cnc2O[C@@H]1CN(C)C(=O)Nc1ccc2c(c1)OCO2 | 13 | 7 |
| C[C@@H]1CN([C@H](C)CO)C(=O)c2cc(N(C)C)ccc2O[C@@H](C)CCCCO[C@H]1CN(C)C(=O)c1ccccc1 | -20 | -4 |
| O=C1CN(S(=O)(=O)Cc2ccccc2)C[C@H]2[C@H](c3ccc(C#Cc4ccccc4)cc3)[C@@H](CO)N12 | ? | / |
| C[C@H]1CN([C@@H](C)CO)C(=O)CCCn2cc(nn2)CO[C@@H]1CN(C)C(=O)Nc1ccc2c(c1)OCCO2 | 16&12 | 13&4 |
| CCCNC(=O)C[C@H]1C[C@@H]2c3cc(NC(=O)Nc4ccccc4F)ccc3O[C@@H]2[C@@H](CO)O1 | 4 | 0 |
| O=C(C1CCCCC1)N1CC2(C1)[C@H](c1ccccc1)[C@@H](CO)N2CC1CCCC1 | -15 | -8 |
| COc1ccc(NC(=O)Nc2ccc3c(c2)CC(=O)N([C@H](C)CO)C[C@H](C)[C@H](CN(C)C(=O)Nc2ccccc2)O3)cc1 | 27 | 15 |
| Cc1noc(C)c1NC(=O)Nc1ccc2c(c1)C(=O)N([C@H](C)CO)C[C@@H](C)[C@@H](CN(C)Cc1ccc(C(F)(F)F)cc1)OCCCC[C@H](C)O2 | ? | / |
| O=C(NCC[C@H]1CC[C@@H](NC(=O)c2ccc3c(c2)OCO3)[C@@H](CO)O1)Nc1cc(F)ccc1F | -12 | -9 |
| C[C@@H]1CN([C@@H](C)CO)C(=O)Cc2cc(NS(=O)(=O)c3ccc(Cl)cc3)ccc2O[C@@H]1CN(C)CC1CCCCC1 | ? | / |
| O=C(C[C@@H]1CC[C@H](NC(=O)CN2CCOCC2)[C@H](CO)O1)NCCc1ccccc1 | 4 | 4 |
| C[C@H]1CN([C@@H](C)CO)C(=O)c2cc(C#Cc3ccccc3F)cnc2O[C@H]1CN(C)S(=O)(=O)c1ccccc1 | -33 | -20 |
| C[C@H](CO)N1C[C@H](C)[C@H](CN(C)S(=O)(=O)c2cn(C)cn2)Oc2ccc(NC(=O)C3CCCCC3)cc2CC1=O | 14 | 9 |
| O=C(C[C@@H]1CC[C@@H](NC(=O)C2CCOCC2)[C@@H](CO)O1)NCC1CCCCC1 | -7 | -7 |
| C[C@H](CO)N1C[C@H](C)[C@H](CN(C)Cc2ccc(-c3ccccc3)cc2)Oc2ccc(NC(=O)Nc3cccc4ccccc34)cc2CC1=O | 3 | -5 |
| C/C=C/c1ccc([C@H]2[C@@H](CO)N(C(C)=O)[C@H]2CNC(=O)c2ccncc2)cc1 | 5 | 3 |
| COC(=O)C[C@@H]1CC[C@H]2[C@@H](COc3ccc(NC(=O)c4cccc(OC)c4)cc3C(=O)N2C)O1 | 9 | 3 |
| CC(C)C#Cc1cnc2c(c1)C(=O)N([C@H](C)CO)C[C@H](C)[C@@H](CN(C)C(=O)CCN1CCCCC1)O2 | 0 | 0 |
| COc1ccccc1S(=O)(=O)N[C@@H]1CC[C@@H](CC(=O)N2CCOCC2)O[C@H]1CO | 14 | 10 |
| CN1C(=O)c2cc(NC(=O)C3CCCC3)ccc2OC[C@H]2O[C@H](CC(=O)O)CC[C@@H]21 | 4 | 16 |
| CCCNC(=O)N1C[C@@H](C)[C@@H](OC)CN(C)C(=O)c2cc(NS(C)(=O)=O)ccc2OC[C@H]1C | 11 | 3 |
| CCS(=O)(=O)N1CC2(CN(Cc3ccccc3F)[C@@H](CO)c3c2c2ccc(OC)cc2n3C)C1 | 0 | -3 |
| C[C@@H]1CN([C@H](C)CO)C(=O)c2cccc(NC(=O)Nc3ccc(F)cc3)c2O[C@@H]1CN(C)Cc1ccc(C(F)(F)F)cc1 | -24 | -7 |
| CC(C)CC#Cc1ccc2c(c1)O[C@H](CN(C)C(=O)Nc1ccccc1F)[C@H](C)CN([C@@H](C)CO)S2(=O)=O | ? | / |
| O=C(Cc1ccncc1)NCC[C@@H]1CC[C@H](NC(=O)C2CCCCC2)[C@H](CO)O1 | 15 | 14 |
| COc1ccc(-c2ccc3c(c2)O[C@@H](CN(C)C(=O)Nc2ccccc2F)[C@H](C)CN([C@@H](C)CO)S3(=O)=O)cc1 | -25 | -26 |
| CCC(=O)N(C)C[C@H]1Oc2cc(C#CC3CCCCC3)ccc2S(=O)(=O)N([C@H](C)CO)C[C@@H]1C | ? | / |
| CO[C@@H]1CN(C)C(=O)c2ccc(NC(=O)NC(C)C)cc2OC[C@@H](C)N(S(C)(=O)=O)C[C@@H]1C | 12 | 5 |
| CNC[C@H]1Oc2c(NC(=O)c3ccc(-c4nccs4)cc3)cccc2C(=O)N([C@@H](C)CO)C[C@H]1C | -7 | -4 |
| COc1cccc(S(=O)(=O)Nc2ccc3c(c2)OC[C@@H](C)NC[C@H](C)[C@H](OC)CN(C)C3=O)c1 | 14 | 19 |
| C[C@@H]1CN([C@H](C)CO)C(=O)Cc2cc(NC(=O)Cc3ccccc3)ccc2O[C@@H]1CN(C)Cc1ccc(Oc2ccccc2)cc1 | ? | / |
| C[C@H](CO)N1C[C@H](C)[C@H](CN(C)C)Oc2ccc(NC(=O)Nc3ccccc3)cc2C1=O | 12 | 0 |
| CC(C)CC#Cc1ccc([C@@H]2[C@@H](CO)N3C(=O)CN(C(=O)Nc4ccc(F)cc4)C[C@@H]23)cc1 | ? | / |
| O=C(Nc1ccc(F)cc1)N1C[C@H]2[C@@H](c3ccccc31)[C@H](CO)N2C(=O)Cc1ccncc1 | 5 | 5 |
| C[C@@H]1CN([C@@H](C)CO)C(=O)Cc2cc(NC(=O)c3ccncc3)ccc2O[C@H]1CN(C)S(=O)(=O)c1cn(C)cn1 | 7 | 4 |
| CO[C@@H]1CN(C)C(=O)c2ccc(NC(C)=O)cc2OC[C@H](C)N(Cc2ccc(F)cc2)C[C@H]1C | -13 | 0 |
| COc1cccc(-c2ccc3c(c2)[C@H]2[C@H](CCN2C(=O)Cc2ccccc2)[C@@H](CO)N3)c1 | ? | / |
| C[C@@H]1CCCCO[C@@H](CN(C)C(=O)Nc2ccc3c(c2)OCO3)[C@H](C)CN([C@@H](C)CO)C(=O)c2cc(NC(=O)c3ccccc3)ccc2O1 | -4 | -12 |
| C[C@@H]1CN([C@H](C)CO)C(=O)c2cccc(N(C)C)c2O[C@H]1CN(C)Cc1ccc2c(c1)OCO2 | 14 | -1 |
| O=C(C[C@H]1CC[C@@H]2[C@H](COC[C@H](O)CN2CC2CCCCC2)O1)NCc1ccc(Cl)cc1 | ? | / |
| C[C@@H]1CN([C@H](C)CO)C(=O)c2cccc(NS(=O)(=O)c3ccc(F)cc3)c2O[C@@H]1CN(C)CC1CCCCC1 | 12 | 6 |
| C[C@@H]1CN([C@H](C)CO)C(=O)c2cc(NS(=O)(=O)c3ccccc3)ccc2O[C@H]1CN(C)Cc1ccccc1 | -3 | -1 |
| O=C(C[C@H]1CC[C@@H]2[C@H](COC[C@@H](O)CN2Cc2cccc(C(F)(F)F)c2)O1)NCc1ccccc1 | -22 | -18 |
| COCC(=O)N1CC(=O)N2[C@H](C1)[C@H](c1ccc(-c3cccnc3)cc1)[C@@H]2CO | 3 | -21 |
| CO[C@@H](CN(C)Cc1ccc2c(c1)OCO2)[C@H](C)CN(C(=O)c1ccccc1)[C@H](C)CO | 5 | 8 |
| C[C@@H]1CCCCO[C@@H](CN(C)C(=O)Nc2cccc3ccccc23)[C@H](C)CN([C@@H](C)CO)C(=O)c2cc(NC(=O)c3ccccc3)ccc2O1 | 13 | 19 |
| C[C@H](CO)N1C[C@H](C)[C@H](CN(C)C(=O)Nc2ccccc2)Oc2c(NC(=O)NC3CCCCC3)cccc2C1=O | -28 | -38 |
| COc1ccc(CN(C)C[C@H]2Oc3c(NS(=O)(=O)c4ccccc4)cccc3C(=O)N([C@@H](C)CO)C[C@@H]2C)cc1 | 19 | 12 |
| COc1ccc(S(=O)(=O)N(C)C[C@H]2Oc3ncc(/C=C/c4ccccc4)cc3C(=O)N([C@H](C)CO)C[C@@H]2C)cc1 | ? | / |

(list continues)
| smiles | Vaccinia inh | Vaccinia inh Venus |
| --- | --- | --- |
| CCC(=O)N1CC(=O)N2[C@H](CO)[C@H](c3ccc(-c4cccnc4)cc3)[C@@H]2C1 | 20 | 12 |
| CO[C@H]1CC[C@H]2CCN(C)C(=O)[C@H](C)[C@@H](OC)CN(C)C(=O)c3cccc(C#N)c3OC[C@@H]1O2 | 10 | 4 |
| N#C[C@H]1[C@H](c2ccccc2C2=CCCCC2)[C@H](CO)N1C(=O)CN1CCOCC1 | -12 | -16 |
| C[C@@H]1CN([C@H](C)CO)C(=O)c2cccc(NC(=O)C3CCOCC3)c2O[C@H]1CN(C)C(=O)Nc1ccc(C(F)(F)F)cc1 | 4 | 2 |
| C[C@@H]1CN([C@@H](C)CO)S(=O)(=O)c2ccc(C#C[C@@H](C)O)cc2O[C@@H]1CN(C)C(=O)C1CC1 | 11 | 8 |
| O=C(NC1CCC1)[C@@H]1[C@@H](CO)[C@@H]2Cn3c(ccc(-c4cccc(F)c4)c3=O)[C@H]1N2Cc1cocn1 | 2 | 4 |
| O=C(C[C@H]1CC[C@H](NC(=O)C2CCOCC2)[C@@H](CO)O1)NCc1ccccc1Cl | -5 | 6 |
| CO[C@@H]1CN(C)C(=O)c2cc(NC(=O)Nc3c(C)noc3C)ccc2OC[C@@H](C)NC[C@@H]1C | 15 | 13 |
| CCC(=O)N1C[C@H](C)[C@H](OC)CN(C)C(=O)c2cc(NS(=O)(=O)CC)ccc2OC[C@H]1C | 7 | 11 |
| COc1ccc(CN(C)C[C@@H]2Oc3c(NC(=O)Nc4ccc(C(F)(F)F)cc4)cccc3C(=O)N([C@@H](C)CO)C[C@@H]2C)cc1 | -10 | -5 |
| Cc1noc(C)c1S(=O)(=O)Nc1ccc2c(c1)C(=O)N([C@@H](C)CO)C[C@@H](C)[C@@H](CN(C)C(=O)Nc1cccc3ccccc13)O2 | 21 | 19 |
| CC(=O)N1[C@@H]2c3ccc(-c4cccc(F)c4)c(=O)n3C[C@@H]2[C@@H](CO)[C@@H]1C(=O)NCCCN(C)C | 7 | 9 |
| COc1cccc(C(=O)Nc2ccc3c(c2)OC[C@@H](C)NC[C@@H](C)[C@H](OC)CN(C)C3=O)c1 | 0 | 9 |
| C[C@@H]1CN([C@@H](C)CO)C(=O)c2cc(C3=CCCC3)cnc2O[C@H]1CN(C)Cc1ccccc1C(=O)O | 20 | 11 |
| Cc1noc(C)c1NC(=O)Nc1ccc2c(c1)CC(=O)N([C@H](C)CO)C[C@@H](C)[C@H](CN(C)CC1CC1)O2 | 10 | 9 |
| Cc1cccc(S(=O)(=O)N2C[C@H](O)COC[C@H]3O[C@H](CC(=O)N4CCN(C)CC4)CC[C@@H]32)c1 | 5 | 17 |
| COc1ccc(NC(=O)N[C@H]2CC[C@H](CCn3cc(-c4ccccc4F)nn3)O[C@@H]2CO)cc1 | -3 | 0 |
| C[C@H](O)C#Cc1cnc2c(c1)C(=O)N([C@H](C)CO)C[C@@H](C)[C@H](CN(C)C(=O)Nc1ccc(F)cc1)O2 | 25 | 20 |
| COc1cccc(-c2cnc3c(c2)C(=O)N([C@@H](C)CO)C[C@H](C)[C@@H](CN(C)Cc2ccccc2)O3)c1 | -11 | -16 |

Rewritten with values under each structure: entries from further up.
Below each SMILES – Vaccinia inh	Vaccinia inh Venus
- C[C@@H]1CN([C@@H](C)CO)S(=O)(=O)c2ccc(C#C[C@@H](C)O)cc2O[C@@H]1CN(C)C(=O)C1CC1
 : 11	8
- O=C(NC1CCC1)[C@@H]1[C@@H](CO)[C@@H]2Cn3c(ccc(-c4cccc(F)c4)c3=O)[C@H]1N2Cc1cocn1
 : 2	4
- O=C(C[C@H]1CC[C@H](NC(=O)C2CCOCC2)[C@@H](CO)O1)NCc1ccccc1Cl
 : -5	6

Three compounds from above, sorted by molecular weight, largest number first:
| smiles | Vaccinia inh | Vaccinia inh Venus |
| --- | --- | --- |
| CCC(=O)N1C[C@H](C)[C@H](OC)CN(C)C(=O)c2cc(NS(=O)(=O)CC)ccc2OC[C@H]1C | 7 | 11 |
| C[C@@H]1CN([C@@H](C)CO)S(=O)(=O)c2ccc(C#C[C@@H](C)O)cc2O[C@@H]1CN(C)C(=O)C1CC1 | 11 | 8 |
| N#C[C@H]1[C@H](c2ccccc2C2=CCCCC2)[C@H](CO)N1C(=O)CN1CCOCC1 | -12 | -16 |
